High-throughput results (PubChem)
RecA intein inh = Mtb RecA intein splicing inhibitors, primary screen, biochemical, fluorescence, HTS | Protein RecA (Mycobacterium tuberculosis (strain ATCC 25618 / H37Rv)), P9WHJ3 | cell-free RecA intein splicing | inhibition, %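 (about 9 µM by stock and volumes)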 | 0.75% of 290,000 active; in the data active means inhibition above about 30%; inconclusive means no clear call, values can overlap the other calls;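 further: 0% = vehicle wells and 100% = reference inhibitor control wells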
Target sequence (P9WHJ3 whole entry, looked up): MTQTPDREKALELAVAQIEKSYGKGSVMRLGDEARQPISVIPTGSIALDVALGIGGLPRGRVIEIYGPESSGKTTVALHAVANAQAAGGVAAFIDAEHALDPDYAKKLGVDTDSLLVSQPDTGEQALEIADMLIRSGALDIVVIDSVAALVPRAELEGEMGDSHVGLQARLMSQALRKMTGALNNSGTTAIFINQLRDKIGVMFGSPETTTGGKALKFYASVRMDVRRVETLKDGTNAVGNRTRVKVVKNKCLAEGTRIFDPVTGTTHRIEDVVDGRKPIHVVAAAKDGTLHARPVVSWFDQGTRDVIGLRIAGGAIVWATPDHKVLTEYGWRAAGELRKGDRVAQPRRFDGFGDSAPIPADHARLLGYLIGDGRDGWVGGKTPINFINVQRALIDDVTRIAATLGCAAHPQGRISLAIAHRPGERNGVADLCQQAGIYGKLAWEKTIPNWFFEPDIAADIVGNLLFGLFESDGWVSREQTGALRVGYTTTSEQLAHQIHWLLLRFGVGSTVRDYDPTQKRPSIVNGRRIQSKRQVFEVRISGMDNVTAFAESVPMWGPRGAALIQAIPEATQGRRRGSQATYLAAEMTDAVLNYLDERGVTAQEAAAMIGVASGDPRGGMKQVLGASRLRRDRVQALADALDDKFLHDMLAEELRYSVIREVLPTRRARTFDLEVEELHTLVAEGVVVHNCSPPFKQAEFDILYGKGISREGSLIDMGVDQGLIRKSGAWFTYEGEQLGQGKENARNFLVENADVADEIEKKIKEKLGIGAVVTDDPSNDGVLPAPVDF
Mtb betalactam = beta-lactam sensitization of Mtb H37Rv, H37Rv | M. tuberculosis H37Rv growth with meropenem, percent inhibition; hits of this screen are not shown here | inhibition, % at 25 µM | 0.27% of 330,000 active;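 active means about 74% or more and at least 40 points above the plate without the antibiotic, then above 30% in a dose series; inconclusive means first-round hits that could not be retested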;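 further: growth measured after seven days incubation then overnight dye step; 0% = bacteria only wells and 100% = bacteria with antibiotic; twin plates without the antibiotic show which effects depend on it; some results filed as inactive read as strong as hits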
Arbovirus inh = antivirals against arbovirus infection, primary screen, cell-based, full library, 10K replicate subset | inhibition, % at 10 µM | arbovirus infection cell-based antiviral screen | 0.37% of 200,000 active;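 active means inhibition from about 30%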;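 further: bluetongue infection of BSR cells; cell survival read as ATP light after 72 h; 0% = infected wells without compound and 100% = uninfected wells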
YopH inh = YopH tyrosine phosphatase inhibitors, primary screen, biochemical, fluorescence Ex485/Em525; YopH tyrosine phosphatase [Yersinia enterocolitica]; inhibition, %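 (about 10 µM by stock and volumes)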; 0.16% of 140,000 active; AID 898, 2007;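 active means inhibition of 50% or more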;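 further: controls were vehicle for no effect and minimum signal wells for full effect; inactives centre near -20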
Mtb H37Rv = M. tuberculosis H37Rv growth inhibitors, H37Rv strain (AID 1626). inhibition, % at 10 µM, or IC50 in µM where a hit was titrated. 0.95% of 220,000 active. M. tuberculosis H37Rv growth inhibition; higher % means a stronger effect;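 active means confirmed in a dose series; inconclusive means inhibition above 80% but not taken into the dose series; inactive means below 80% or under 30% at every dose of the series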;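 further: bacteria incubated seven days before Alamar blue readout; 0% = bacteria only wells and 100% = bacteria with antibiotic wells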
Arbovirus inh repeat = recorded beside Arbovirus inh, whose call it bears; inhibition, %; measured here: 10K subset replicate screen; many hits read low in the repeat;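 first of two repeat runs on a subset; 0% = infected and 100% = uninfected wells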
* hit, by the source's call; ? = inconclusive; / = no result given. Some of the compounds tested; rates above refer to the full screens.

SMILES	RecA intein inh	Mtb betalactam	Arbovirus inh	YopH inh	Mtb H37Rv	others
O=[N+]([O-])c1cc(-c2csc(NCCc3nc4cc(Cl)c(N5CCCCC5)cc4n3CCCO)n2)ccc1Cl	-1.6	98.1	/	/	7.9%
CCN(CC(=O)Nc1c(F)cccc1F)C(=O)c1ccc(C#N)cc1	1.1	-3.6	/	/	/
O=C(NN1CCCCC1)c1cccc2ccccc12	-4.1	-7.5	-0.6	/	6.9%
Cc1ccc(C(=O)N/C(=C\c2ccc(-c3ccc(Cl)cc3)o2)C(=O)NCCCN(C)C)cc1	1.8	/	-29.5	/	?
COc1ccccc1Oc1nc(-c2ccccc2)cc(C)c1S(C)(=O)=O	0.5	2.7	-7.7	-33.8	6.5%
COc1cc(-c2ccc(NC(=O)NC3CC3)c(OC)c2)ccc1NC(=O)NC1CC1	-0.6	0.2	/	/	2.3%
Cc1cc(S(=O)(=O)Nc2ccc(C(=O)N3CCN(C(=O)c4ccco4)CC3)cc2)ccc1F	0.4	0.9	5.4	-53.0	-3.8%
CC(/C=C/c1ccco1)=N\NC(=O)COc1ccc(C)c(C)c1	2.5	1.3	-10.7	/	-12.2%
CC1=C(C(=O)OC(C)C)C(c2ccccc2)NC(=S)N1C (centres undefined)	-3.0	-1.5	4.7	-22.3	4.9%
FC(F)(F)c1ccc(Cl)c(NC(=S)N/N=C/c2ccccc2C(F)(F)F)c1	1.0	4.3	10.3	-18.5	3.4%
O=C1CCCC2=C1C(c1ccc(Cl)cc1)n1c(s/c(=C\c3ccc4ccncc4c3)c1=O)=N2 (centres undefined)	3.2	6.4	18.1	-3.2	1.9%
CCC(=O)NC(NC(=S)Nc1ccc(S(N)(=O)=O)cc1)C(Cl)(Cl)Cl (centres undefined)	-0.8	2.6	-0.6	-6.5	-4.3%
CCCn1c(=N)n(CC(=O)C(C)(C)C)c2ccccc21	2.2	6.4	-2.8	-10.9	4.2%
COCCNCCCCOc1c(Cl)cc(C)cc1Br	-1.0	-2.4	-19.6	-21.1	-0.7%
COc1ccccc1N1CCN(CC(=O)Nc2c(C)n(C)n(-c3ccccc3)c2=O)CC1	-0.4	1.7	0.2	/	3.5%
C/C(Cl)=C/Cn1c(NCCN(C)C)nc2c1c(=O)n(C)c(=O)n2C	0.8	-0.5	17.0	-32.7	-7.0%
O=C1C2N=NN(CC(=O)N3N=C(c4ccccc4)CC3c3ccc([N+](=O)[O-])cc3)C2C(=O)N1c1ccccc1 (centres undefined)	-0.6	2.5	3.8	/	-3.9%
CCn1ccnc1CN(C)Cc1nc(-c2ccc(C(=O)OC)cc2)no1	0.3	-3.1	/	/	-0.9%
Clc1ccc(-c2nnc(SCc3cn4ccsc4n3)n2CC2CCCO2)cc1 (centres undefined)	0.8	-6.5	-3.3	-33.1	8.0%
Cc1cccc(S(=O)(=O)N2CCCc3ccccc32)c1	5.7	-4.5	/	/	/
CCc1cccc(NC(=O)CCS(=O)(=O)c2ccc(Br)cc2)c1	-1.8	36.0	/	/	/
Cc1ccc(S(=O)(=O)NCCC(=O)N2CC(C)OC(C)C2)cc1C (centres undefined)	2.2	-9.5	/	/	/
CCOC(=O)C1=C(C)OC(N)=C(C#N)C12C(=O)Nc1ccc(C)cc12 (centres undefined)	2.1	-1.5	3.8	-21.5	1.0%
CC(=O)NC(CC(=O)Nc1ccc(S(=O)(=O)N2CCCC2)cc1)c1ccccc1 (centres undefined)	3.9	6.5	-0.1	-45.5	-7.3%
CCC(=O)Nc1ccc2nc(C3CC3)n(Cc3ccc(C(C)(C)C)cc3)c(=O)c2c1	3.1	-3.5	/	/	13.8%
Cc1onc(-c2c(F)cccc2Cl)c1C(=O)NNC(=O)C1CCN(Cc2ccccc2)CC1	-0.5	8.5	5.2	/	-3.2%
Brc1ccc(-c2nnc(-c3cccnc3)o2)cc1	6.0	26.2	/	/	/
Cc1c(CCC(=O)NCCCN2CCCC2=O)c(=O)oc2c(C)c(O)ccc12	-45.1	-4.6	/	/	/
COCCNC(=O)CN1CCC(NC(=O)Nc2ccccc2)CC1	-4.3	-6.3	5.1	-39.0	-6.5%
O=c1sc2ccccc2c(N2CCN(c3ccccc3)CC2)c1[N+](=O)[O-]	-0.3	-4.6	11.1	/	2.4%
COC(=O)C1=C(C)N(Cc2ccccc2)C(=NCc2cc(OC)c(OC)c(OC)c2)N[C@H]1c1cccc(F)c1	-0.6	-7.0	/	/	/
Cc1ccc(-c2cc3nc(-c4ccccc4)cc(N4CCC5(CC4)OCCO5)n3n2)cc1	0.2	3.7	-9.2	-5.7	18.5%
Cc1cc(Nc2ccccc2Cl)c2ccccc2n1	-0.6	-9.8	/	/	/
COc1cccc(CNC(=O)C(NS(=O)(=O)c2ccc3c(c2)CCN3C(C)=O)C(C)C)c1 (centres undefined)	3.0	7.8	/	/	/
CCCC[n+]1ccn(C2=C([O-])c3ccccc3C(=O)/C2=N\S(=O)(=O)c2ccccc2)c1	3.7	11.5	-21.1	-37.5	7.0%
CC(C)(C)NC(=O)C(c1ccncc1)N(Cc1cccs1)C(=O)c1csnn1 (centres undefined)	-1.6	-6.5	/	/	/
C[C@H](NC(=O)c1ccco1)C(=O)N1CCCC1	-2.4	-8.5	/	/	/
Cc1ccc(OCC(=O)N/N=C\c2cccs2)c([N+](=O)[O-])c1	1.1	-2.4	-2.0	-26.6	2.5%
O=C(CSc1ncn(-c2ccccc2)n1)N1CCN(c2ccccc2)CC1	2.2	-5.4	-1.6	17.1	-5.0%
O=C(N/N=C/C=C/c1cccc([N+](=O)[O-])c1)c1ccncc1	-1.6	98.0	/	/	?

Random excerpt: two entries already listed
SMILES	RecA intein inh	Mtb betalactam	Arbovirus inh	YopH inh	Mtb H37Rv	others
Cc1cc(Nc2ccccc2Cl)c2ccccc2n1	-0.6	-9.8	/	/	/
CCC(=O)Nc1ccc2nc(C3CC3)n(Cc3ccc(C(C)(C)C)cc3)c(=O)c2c1	3.1	-3.5	/	/	13.8%

New compounds follow.
SMILES	RecA intein inh	Mtb betalactam	Arbovirus inh	YopH inh	Mtb H37Rv	others
Clc1ccc(N2CCN(c3nc4nonc4nc3N3CCSCC3)CC2)nc1	0.2	-2.2	-1.2	/	2.7%
CCN1C(=O)N[C@H](c2ccccc2)C(C(C)=O)=C1C	0.8	-5.3	/	/	-1.7%
Cc1onc(-c2ccccc2Cl)c1C(=O)N1CCOC12CCCCC2	2.7	-5.9	1.4	/	2.4%
O=C(Nc1nc2ccc(C(=O)N3CCCCC3)cc2s1)C1CCCCC1	-0.3	7.1	-17.9	/	6.8%
CC(C)CC(/C(O)=C(\C#N)c1nc2ccccc2[nH]1)N1C(=O)c2ccccc2C1=O (centres undefined)	9.1	68.7	-10.0	-0.7	78.7%	Arbovirus inh repeat=-24.6
Cc1ccnn1CCC(=O)N1CCCC(CCC(=O)NCc2ccccc2F)C1 (centres undefined)	-3.0	-4.2	-4.2	/	-5.0%
COc1cccc(NC(=O)C(=O)NCCC2CCCCN2S(=O)(=O)c2ccccc2)c1 (centres undefined)	1.2	-1.2	/	/	/
COc1ccc(N)cc1S(=O)(=O)Nc1ccccc1Cl	-0.5	-4.9	/	/	4.3%
O=C(CSc1cccc2cccnc12)Nc1cccc(S(=O)(=O)N2CCOCC2)c1	0.7	-3.5	5.2	/	-4.8%
Cc1ccc(C(=O)N[C@@H](C)CN2C3=NC[C@@H](Cc4ccccc4)N3C[C@H]2Cc2ccc(O)cc2)cc1Br	6.6	99.8	-21.5	/	?
Cc1ccc(NC(=O)C2CCCN2C(=O)NC2CCCCC2)cc1C (centres undefined)	0.7	-2.8	-4.6	/	8.0%
Cc1csc(Sc2ccc(C(=O)OCC(=O)Nc3ccc(OC(F)(F)F)cc3)cc2[N+](=O)[O-])n1	3.4	-2.7	12.2	-26.3	2.4%
NC(=O)CSc1nc2c(sc3ccccc32)c(=O)n1CCCN1CCOCC1	-0.1	-3.6	1.9	-39.2	-1.2%
Cc1noc(NS(=O)(=O)c2ccc(NC(=O)c3ccc(Br)o3)cc2)c1C	-2.1	1.1	-0.6	-45.7	-6.5%
CCCCCCCCSc1nnc(CSc2nc3nc(C)cc(C)n3n2)o1	12.0	99.0	-5.9	-73.6	0.635µM*
CCOC(=O)CNC(c1ccccc1)c1cc(Br)ccc1NC(C)=O (centres undefined)	0.3	-5.7	-11.7	/	-6.2%
COc1ccc(C2C3=C(CCCC3=O)Nc3nc(C(F)(F)F)nn32)cc1OC (centres undefined)	3.4	6.0	-6.5	-40.6	4.0%
Nc1c(Cl)cc(-c2csc(N3CCCC3c3nc4cc(Cl)c(Cl)cc4n3CCOCCO)n2)cc1Cl (centres undefined)	14.6	15.5	/	/	/
Cc1ccc(CSc2nc3[nH]ncc3c(=O)[nH]2)cc1	-1.8	13.6	-20.0	/	/
Cc1c(NC(=O)CN2CCN(c3cccc(Cl)c3)CC2)c(=O)n(-c2ccccc2)n1C	/	-7.4	4.5	/	-2.3%
CC(C)Cc1nc(N2CCOCC2)c(C#N)c2c1CCC2	2.7	0.5	-0.6	-31.4	-2.8%
CC(Sc1n[nH]c(=O)n1Cc1ccccc1)C(=O)NC1CCCCC1C (centres undefined)	-0.9	-6.1	/	/	/
CCCCNC(=O)CC(C(=O)N1CCc2ccccc21)n1ccnc1 (centres undefined)	-0.8	-8.4	-3.1	-12.1	-5.1%
O=C(NC1CCCC1)c1cc(-c2cccs2)on1	-3.3	21.8	-2.7	-21.4	/
COC(=O)c1c(C)[nH]c(C)c1-c1ccc(C)cc1	0.6	-3.6	-0.6	-22.1	3.2%
CCOC(=O)N1CCN(C(=O)CSC2=NS(=O)(=O)c3ccccc3N2)CC1	1.1	-12.4	/	/	/
Cc1cc(C)n(-c2ccc(C(=O)OCC(=O)Nc3ccc([N+](=O)[O-])cc3)cc2)n1	1.1	-0.4	1.2	-8.6	0.0%
O=c1[nH]c(Cc2ccccc2)nc2scc(-c3ccccc3)c12	-3.1	-8.7	0.6	-9.6	-0.3%
COc1ccc(/C=C/C(=O)c2c(C)cc(C)[nH]c2=O)c2ccccc12	-3.3	-0.1	/	/	/
OC[C@H]1OC(O)C[C@@H](O)[C@@H]1O (some centres undefined)	-1.8	-5.3	/	/	/
Cc1cc(=O)oc2c3c(cc(OCC(=O)N[C@@H](C)C(=O)O)c12)OC(C)(C)CC3	-1.0	-5.6	/	/	/
CCOC(=O)CC1C(=O)NCCN1C(=O)COc1ccc(Br)cc1C (centres undefined)	6.4	2.0	7.4	9.4	4.8%
COc1ccc(/C=C/C2=NNC(=O)CC2)cc1	-1.9	-0.6	-1.9	/	-10.2%
Fc1cccc2sc(N3CCCCC3)nc12	-0.7	-2.8	-1.3	5.4	-9.2%

Structures from the list above that have an aryl methoxy group (ten):
SMILES	RecA intein inh	Mtb betalactam	Arbovirus inh	YopH inh	Mtb H37Rv	others
COc1ccccc1Oc1nc(-c2ccccc2)cc(C)c1S(C)(=O)=O	0.5	2.7	-7.7	-33.8	6.5%
COc1cc(-c2ccc(NC(=O)NC3CC3)c(OC)c2)ccc1NC(=O)NC1CC1	-0.6	0.2	/	/	2.3%
COc1ccccc1N1CCN(CC(=O)Nc2c(C)n(C)n(-c3ccccc3)c2=O)CC1	-0.4	1.7	0.2	/	3.5%
COC(=O)C1=C(C)N(Cc2ccccc2)C(=NCc2cc(OC)c(OC)c(OC)c2)N[C@H]1c1cccc(F)c1	-0.6	-7.0	/	/	/
COc1cccc(CNC(=O)C(NS(=O)(=O)c2ccc3c(c2)CCN3C(C)=O)C(C)C)c1 (centres undefined)	3.0	7.8	/	/	/
COc1cccc(NC(=O)C(=O)NCCC2CCCCN2S(=O)(=O)c2ccccc2)c1 (centres undefined)	1.2	-1.2	/	/	/
COc1ccc(N)cc1S(=O)(=O)Nc1ccccc1Cl	-0.5	-4.9	/	/	4.3%
COc1ccc(C2C3=C(CCCC3=O)Nc3nc(C(F)(F)F)nn32)cc1OC (centres undefined)	3.4	6.0	-6.5	-40.6	4.0%
COc1ccc(/C=C/C(=O)c2c(C)cc(C)[nH]c2=O)c2ccccc12	-3.3	-0.1	/	/	/
COc1ccc(/C=C/C2=NNC(=O)CC2)cc1	-1.9	-0.6	-1.9	/	-10.2%
